Compound activity as filed in PubChem.
Measles inh: inhibitors of measles virus growth in infected cells; infected Vero cells, GFP fluorescence, 64 h; hits give low values; 33,000 compounds, 0.1% hits; z-score (concentration not given with the values);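 active = z-score under -3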;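 note: score is relative to mean and SD of the compound wells of a plate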
An asterisk follows results filed as active.

SMILES | Measles inh
COc1cccc(CNC(=O)C2CCCN(S(=O)(=O)c3cccc4nsnc34)C2)c1 (stereo unspecified) | 0.39
Cc1ccc(NC(=O)C2C3NC(=S)NC2(C)Oc2ccc(Br)cc23)c(C)c1 (stereo unspecified) | -3.3*
CC(NC(=O)CCCCCn1c(=O)[nH]c2ccsc2c1=O)C12CC3CC(CC(C3)C1)C2 (stereo unspecified) | 0.04
COc1ccccc1CNC(=O)CNC(=O)Cn1ccc2ccccc2c1=O | -0.1
Nc1ccc(Oc2ccc3nc(-c4ccc(N)cc4)[nH]c3c2)cc1 | 0.07
COc1ccc(NC(=O)c2ccc(Cl)c([N+](=O)[O-])c2)c(OC)c1 | -0.1
COc1cc2nc(=S)n3[nH]c(C)nc3c2cc1OC | 0.26
COc1ccc(NC(=O)C2=C(C)NC(=O)NC2c2ccc(F)cc2)c(OC)c1 (stereo unspecified) | -1.2
COCCOC(=O)c1c(C)oc2c1cc(NS(=O)(=O)c1ccc(Cl)c([N+](=O)[O-])c1)c1ccccc12 | -0.12
CCCSc1nnc2c(n1)OC(c1ccco1)N(C(=O)CC)c1ccccc1-2 (stereo unspecified) | 0.12
O=C(CCS(=O)(=O)c1ccc(Br)s1)N1CCc2ccccc21 | 0.98
O=C1c2ccccc2C(=O)c2c(NCC3CCCO3)cccc21 (stereo unspecified) | 1
COC(=O)c1ccc(N2C(=O)CC(N3CCN(c4ccc(OC)cc4)CC3)C2=O)cc1 (stereo unspecified) | 2.2
CN(C)CCN1C(=O)C(=O)/C(=C(/O)c2ccccc2)C1c1ccc2c(c1)OCO2 (stereo unspecified) | -0.17
CCOC(=O)C(NC(=O)c1ccc(OC)cc1)(Nc1cccc(Cl)c1C)C(F)(F)F (stereo unspecified) | -0.3
Cc1ccc(CSc2oc(-c3ccco3)nc2S(=O)(=O)c2ccc(Cl)cc2)cc1 | -1.6
COc1ccc(N2CCN(c3ncnc4sc(C(=O)Nc5cc(OC)c(OC)c(OC)c5)c(C)c34)CC2)cc1 | -1
CCCCN(CC)C(=O)c1c[nH]c2ccc(S(=O)(=O)N(C)c3cccc(C)c3)cc2c1=O | -0.89
COc1ccccc1Nc1cc(C(=O)NC(C)c2ccccc2)c2ccccc2n1 (stereo unspecified) | -0.28
Cn1c2ccccc2n2c(SCC(=O)O)nnc12 | -0.52

Next part; it opens with the six that closed the last part.
SMILES | Measles inh
CCOC(=O)C(NC(=O)c1ccc(OC)cc1)(Nc1cccc(Cl)c1C)C(F)(F)F (stereo unspecified) | -0.3
Cc1ccc(CSc2oc(-c3ccco3)nc2S(=O)(=O)c2ccc(Cl)cc2)cc1 | -1.6
COc1ccc(N2CCN(c3ncnc4sc(C(=O)Nc5cc(OC)c(OC)c(OC)c5)c(C)c34)CC2)cc1 | -1
CCCCN(CC)C(=O)c1c[nH]c2ccc(S(=O)(=O)N(C)c3cccc(C)c3)cc2c1=O | -0.89
COc1ccccc1Nc1cc(C(=O)NC(C)c2ccccc2)c2ccccc2n1 (stereo unspecified) | -0.28
Cn1c2ccccc2n2c(SCC(=O)O)nnc12 | -0.52
COc1ccc(N2C(=O)CC2(C#N)c2ccc(OCc3ccccc3)cc2)cc1 (stereo unspecified) | -1.5
CCN(CC)c1ccc(NC(=O)Cn2cnc3sc(C)c(C)c3c2=O)c(C)c1 | 0.35
Cc1[nH]c2ccccc2c1SCCNC(=O)c1ccccc1Br | -0.96
CCOC(=O)c1ccc(-c2sc3nc(N4CCOCC4)c4c(c3c2N)CC(C)(C)OC4)o1 | 1.2
Cc1cc(C)nc(/N=C(\N)Nc2cccc(C(F)(F)F)c2)n1 | 0.31
CN(Cc1ccccc1)C(=O)c1ccc(CNS(=O)(=O)c2ccc(F)cc2)cc1 | -0.8
O=C(Cn1nc(-c2ccc(Cl)cc2)ccc1=O)NCCN1CCOCC1 | 1.2
C=CCOC(=O)C1=C(C)Nc2ncnn2C1c1cccc(Br)c1 (stereo unspecified) | -0.04
COC(=O)c1ccccc1NC(=O)CCc1nc(-c2ccc(OC)cc2)no1 | 0.67
Clc1cc(-n2nc(-c3ccccc3)cc2-c2ccccc2)ncn1 | -0.7
Cc1nc2n(n1)C(c1ccc(Cl)cc1)C=C(c1ccc(Cl)cc1)N2 (stereo unspecified) | 0.08
CCC(=O)OCC1OC(n2ccc(=O)[nH]c2=O)CC1OC(=O)CC (stereo unspecified) | 0.64
CCC(=O)N1CCc2cc(S(=O)(=O)NCc3ccccc3)ccc21 | -0.32
Cc1cccc(Oc2cc(NC(=O)c3cc4n(n3)C(C(F)(F)F)CC(c3cccs3)N4)cc([N+](=O)[O-])c2)c1 (stereo unspecified) | -1.1
CCn1cc(C(=O)NCC2CCCO2)c2c3ccccc3n(C)c2c1=O (stereo unspecified) | -0.24
COc1ccccc1C(=O)Nc1c2c(nn1-c1ccc(C)cc1)CSC2 | -0.74
N=c1c(C(N)=O)cc2c(=O)n3ccccc3nc2n1CC1CCCO1 (stereo unspecified) | 0.81
COc1ccc(C2=CC(c3ccccc3F)n3c(nc4ccccc43)N2)cc1 (stereo unspecified) | -0.11
O=C(Cn1c(=O)n(Cc2ccc3c(c2)OCO3)c(=O)c2ccccc21)NCC1CCCO1 (stereo unspecified) | 0.64
CCOc1ccc(-c2nnc(SCC(=O)N3CCCc4ccccc43)o2)cc1 | 0.81

Quoted at random: 3 compounds from above.
SMILES | Measles inh
Cc1[nH]c2ccccc2c1SCCNC(=O)c1ccccc1Br | -0.96
COC(=O)c1ccccc1NC(=O)CCc1nc(-c2ccc(OC)cc2)no1 | 0.67
CCOc1ccc(-c2nnc(SCC(=O)N3CCCc4ccccc43)o2)cc1 | 0.81

Carrying on:
SMILES | Measles inh
CCOC(=O)c1cnc2c(C)c(Cl)ccc2c1Nc1ccc(C)cc1C | -0.56
Cc1ccc(-c2nc3cc(N=Cc4cccc([N+](=O)[O-])c4O)ccc3o2)cc1C | -1.2
COc1ccc(CC(=O)N2CC(=O)Nc3ccc(C)cc3C2c2ccc(F)cc2)cc1OC (stereo unspecified) | -0.95
Cc1onc(-c2ccccc2)c1C(=O)Nc1sc(C(=O)N(C)C)c(C)c1C(=O)OC(C)C | -0.08
CCOc1ccc(-n2c(=O)c3c4c(sc3n(CC(=O)NC3CCCC3)c2=O)CCCC4)cc1 | -1.4
Cc1ccccc1CSc1c[nH]c2ccccc12 | -0.31
CCOC(=O)C1=NNC2C(=O)N(c3ccc(OC)cc3)C(=O)C12 (stereo unspecified) | 0.11
Cc1cc(Br)ccc1NC(=O)Cn1cnc2sc(C)c(S(=O)(=O)N3CCN(C)CC3)c2c1=O | -2
COc1ccccc1C(=O)CN1CCN(S(=O)(=O)c2ccc(C(C)C)cc2)CC1 | 1.1
Cc1ccc(S(=O)(=O)CCC(=O)Nc2cccc([N+](=O)[O-])c2)cc1 | -0.52
Cc1ccc(N(C(=O)Cn2cccc([N+](=O)[O-])c2=O)C2(C(=O)Nc3c(C)cccc3C)CCCCC2)cc1 | -0.73
c1ccc(-c2nc(Sc3ccccn3)c3oc4ccccc4c3n2)cc1 | -0.11
CC(C)c1ccc(NS(=O)(=O)c2ccc3[nH]c(=O)c(=O)[nH]c3c2)cc1 | -0.73
c1ccc2c(c1)CC1(CCCCC1)n1c(-c3ccncc3)nnc1-2 | -0.58
CC(=O)c1ccc(N=c2oc3ccccc3cc2C(N)=O)cc1 | 0.19
Cc1cc(N2CC(C)CC(C)C2)nc2ccc(NC(=O)CCC(=O)N(C)C3CCCCC3)cc12 (stereo unspecified) | -0.65
Cc1ccc(C)c(N2CCN(C(=O)c3c[nH]c4ccc(S(=O)(=O)N5CCOCC5)cc4c3=O)CC2)c1 | -0.01
Cc1ccc(C)c(S(=O)(=O)Nc2cc3c(C(=O)OC(C)C)c(C)oc3c3ccccc23)c1 | -0.15
NC(=O)c1ccccc1NC(=O)CN1CCOCC1 | 0.06
CCN(CC)S(=O)(=O)c1ccc2[nH]cc(C(=O)N3CCCCC3C)c(=O)c2c1 (stereo unspecified) | -0.36

Arranged by length of the SMILES (ascending): some entries from above.
SMILES | Measles inh
c1ccc2c(c1)CC1(CCCCC1)n1c(-c3ccncc3)nnc1-2 | -0.58
CCOc1ccc(-n2c(=O)c3c4c(sc3n(CC(=O)NC3CCCC3)c2=O)CCCC4)cc1 | -1.4
Cc1cc(Br)ccc1NC(=O)Cn1cnc2sc(C)c(S(=O)(=O)N3CCN(C)CC3)c2c1=O | -2

Later entries.
SMILES | Measles inh
Clc1ccc(OCCn2c3ccccc3c3nc4ccccc4nc32)cc1 | -0.3
COc1ccc(C(N)=O)cc1NC(=O)c1ccc2c(=O)n(Cc3ccccc3)c(=S)[nH]c2c1 | -0.78
CC(=O)C1=C(O)C(=O)N(CCC(=O)O)C1c1ccc2c(c1)OCO2 (stereo unspecified) | 1.3
COc1ccc(Nc2nc(-c3cc(OC)c(OC)c(OC)c3)nc3ccccc23)cc1OC | -1.3
CCCCC1CCC(C(=O)Nc2c3c(nn2-c2ccc(Cl)cc2)CS(=O)(=O)C3)CC1 (stereo unspecified) | 0.72
CCc1cccc(C)c1NC(=O)c1cc2ccccc2o1 | 1.3
COc1cccc(C2=NN(C(C)=O)C(c3cc4ccccc4nc3Cl)C2)c1OC (stereo unspecified) | -0.55
Cc1cccc(OCc2nc3c4c5c(sc4ncn3n2)C(C)(C)NC(C)(C)C5)c1C | 0.85
CC1CCCN(Cc2c(O)ccc3c(=O)c(-c4ccc(Cl)cc4)coc23)C1 (stereo unspecified) | -2
COC(=O)c1ccc(NC(=O)c2ccccc2Cl)cc1 | -0.24
COc1cccc(C2CC(c3cccs3)Nc3ncnn32)c1 (stereo unspecified) | -0.36
Cc1ccccc1C(=O)Nc1ccc(C(=O)O)cc1NC(=O)c1ccccc1C | -1.4
CSc1nc2c(cc1C#N)C(=O)CC(C)(C)C2 | 1.1
COc1ccc(C=Nc2cccc(-c3cnc[nH]3)c2)cc1 | 2.3
COC(=O)c1ccc(C2Oc3c(OC)cccc3C3CC(c4cccc(OC)c4)=NN32)cc1 (stereo unspecified) | 1.1
CC1=C(C(=O)OCC(C)C)C(c2coc3ccccc3c2=O)C2=C(CC(c3cccs3)CC2=O)N1 (stereo unspecified) | -0.14
Cc1cc(C)nc(NS(=O)(=O)c2ccc(NC(=O)c3cc4ccccc4oc3=O)cc2)n1 | -0.63
O=C1CCCC2=C1C(c1ccc(OCc3ccc(C(=O)O)cc3)c(Cl)c1)C1=C(CCCC1=O)O2 | -2.1
Nc1cccc2c1C(=O)c1ccc(NC(=O)c3ccccc3)cc1C2=O | -0.95
O=C(c1ccccc1)c1cc2ccccc2oc1=O | -0.12
COc1ccc(CNc2nc(-c3ccco3)cc(C(F)(F)F)n2)cc1 | -0.77
CCSc1nnc(NC(=O)c2ccc([N+](=O)[O-])cc2)s1 | 0.65
CC1(C)CC(=O)c2sc(NC(=O)C3CC3)nc2C1 | 0.27
CCOc1cc2[nH]c(=S)n(CCCN3CCOCC3)c(=O)c2cc1OCC | 1.8
CCCC(=O)N(c1ccc2oc(C)c(C(=O)OC)c2c1)S(=O)(=O)c1ccc(C)c([N+](=O)[O-])c1 | 0.16
CCOCCCNC(=O)C1CCCN(S(=O)(=O)N2CC(C)CC(C)C2)C1 (stereo unspecified) | 1.6
O=C(Nc1c2c(nc3ccccc13)CCCC2)c1ccccc1F | 0.9
COCCNC(=O)c1ccc(N2CCCC2=O)cc1 | -0.09
Cc1cc(CN2C(=O)NC(C)(C)C2=O)c(C)cc1CN1C(=O)NC(C)(C)C1=O | 2.1
C=CCOC(=O)C1=C(C)NC(=O)NC1c1ccccc1F (stereo unspecified) | 0.22
CCc1cccc(CC)c1N(COC)C(=O)CSc1nc2ccccc2[nH]1 | 2.4
COc1ccc(C(=O)c2sc3nc4c(c(-c5ccco5)c3c2N)CCC4)cc1 | -1.6
O=C(c1ccc(S(=O)(=O)c2ccccc2)cc1)N1CCc2ccccc2C1 | -0.38
COc1cccc(C2C(C(=O)Nc3ccc(Cl)cc3)=C(C)Nc3nc4ccccc4n32)c1OC (stereo unspecified) | -0.25
O=C(Nc1ccc(-c2nc3ccccc3o2)cc1)c1cc([N+](=O)[O-])ccc1Br | -0.17
COc1cccc(C2C(C(=O)Nc3cccc(F)c3)=C(C)NC3=C2C(=O)CC(C)(C)C3)c1 (stereo unspecified) | 0.19
Cc1cccc(C)c1NC(=O)c1ccccc1NC(=O)c1ccccc1 | 1.4
CCOc1ccc(N(C)S(=O)(=O)c2ccc(Cl)cc2)cc1 | -0.08
Cc1ccc(-c2cc(C(F)(F)F)n3ncc(-c4ccccc4)c3n2)cc1 | -0.73
CCN(C(=O)CSc1nc2nc(C)cc(C)n2n1)c1cccc(C)c1 | 0.29
NC(=O)c1c(NC(=O)c2cccc([N+](=O)[O-])c2)sc2c1CCCC2 | -0.22
Cc1c(Cl)cccc1-n1ncnc1-c1cccc(Br)c1 | 0.35
Cc1cc(C)c(C#N)c(Nc2cccc(Cl)c2)n1 | -0.81
Cc1cccc(NC2=NS(=O)(=O)c3ccccc32)c1 | -0.14
Cc1sc2ncn(CC(=O)Nc3ccc(F)cc3)c(=O)c2c1S(=O)(=O)N1CC(C)CC(C)C1 (stereo unspecified) | 0.37
Cc1csc(NC(=O)CCCOc2ccc(Cl)cc2C)n1 | 0.3
O=c1c(Br)c(N2CCN(c3ccc(C(F)(F)F)cc3[N+](=O)[O-])CC2)cnn1-c1ccccc1 | -1.1
CCC(=O)N1CCc2cc(Br)cc(S(=O)(=O)NCCN3CCN(c4ccccc4F)CC3)c21 | -0.12
CCOc1ccc(NC(=O)CC23CC4CC(CC(C4)C2)C3)cc1 | -0.82
COCCOC(=O)c1c(C)oc2ccc(OCc3ccc([N+](=O)[O-])cc3)cc12 | 0.9
CCN(CC)c1nc(-c2ccccc2F)nc2ccccc12 | -1.1
CCOC(=O)c1c(-c2ccccc2)oc2ccc(OC(=O)CC)cc12 | -0.59
CCOC(=O)c1ccccc1NC(=O)CN(c1cccc(C)c1C)S(C)(=O)=O | -0.87
Oc1c(CN2CCCC2)cc(Cl)c2cccnc12 | -2.6
CC(=O)Oc1ccc(C(=O)N(C)c2ccccc2)cc1 | 1.2

This is a subset; rates above refer to the full screens.
